Screening results from PubChem.
UCH37 DUB inh: inhibitors of human UCH37 deubiquitinase, primary screen, biochemical, Ub-AMC cleavage, fluorescence. actives 0.33% (n = 330,000). Ubiquitin carboxyl-terminal hydrolase isozyme L5 (Homo sapiens), Q9Y5K5. inhibition, % (concentration not given with the values). AID 588478, 2011. purified proteasome/UCH37;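 active = mean of two replicates above 20%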;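 also: 0% = compound-free wells with enzyme and 100% = wells lacking proteasome; stock transfer was 100 nL into about 20 µL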
Target sequence (Q9Y5K5 whole entry, looked up): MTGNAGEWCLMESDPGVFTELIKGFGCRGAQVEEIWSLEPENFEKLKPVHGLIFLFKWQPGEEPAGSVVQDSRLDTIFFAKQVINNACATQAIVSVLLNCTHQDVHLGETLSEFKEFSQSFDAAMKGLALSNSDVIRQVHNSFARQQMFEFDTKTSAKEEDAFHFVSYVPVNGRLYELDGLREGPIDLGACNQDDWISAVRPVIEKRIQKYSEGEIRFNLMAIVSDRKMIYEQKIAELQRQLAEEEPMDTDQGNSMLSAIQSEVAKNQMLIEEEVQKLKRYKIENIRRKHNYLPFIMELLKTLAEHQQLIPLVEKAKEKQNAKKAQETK
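System: Proteasome-associated human UCH37 deubiquitinase; Input: 0.15 nM proteasome in added enzyme buffer; Also added: Ub-AMC substrate from 1 µM stock; Incubation: 30 min compound-proteasome preincubation then 25 min substrate reaction, room temperature; Detection: fluorescence, ex 355 nm, em 460 nm; Read-out: % inhibition of Ub-AMC cleavage fluorescence; Benchmarks: no-proteasome and no-compound wells.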
E coli growth: E. coli growth inhibition, primary screen, OD600; AID 1053175, 2014; actives 0.21% (n = 330,000); Escherichia coli growth, 23 h; active compounds read low; OD600 absorbance (test concentration not listed);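 active = OD600 absorbance below the run mean of sample wells minus 3.6 SD, in any replicate, cut at about 0.56 in these data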;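 also: stock transfer was 300 nL into about 60 µL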
* = called active by the depositor. Some of the compounds tested. The share of hits here may be higher or lower than overall.

SMILES	UCH37 DUB inh	E coli growth
O=C(Cc1csc(N2CCOCC2)n1)NN=Cc1ccc(Cl)cc1Cl	2.5	0.67
CC(=NOCc1ccc(C#N)cc1)c1ccc(S(=O)(=O)N(C)C)cc1	0.0	0.66
O=C(NN=Cc1c(O)ccc2ccccc12)c1cccc(C(F)(F)F)c1	3.5	0.54
CCOc1ccc(C=NNC(=O)c2[nH]ncc2Br)c(O)c1	-4.1	0.64
C=CCOc1ccc(C=NN2C(=O)C(CC(=O)Nc3ccc(F)cc3F)SC2=NC)cc1 (stereo not given)	6.0	0.65
CCOC(=O)NN=Cc1ccc(F)cc1	2.8	0.71
COC(=O)COc1cccc(C=NNC(=O)CCSc2ccccc2)c1	2.5	0.68
CC(Cn1nc([N+](=O)[O-])cc1C)=NNC(=O)COc1c(Cl)cc(Cl)cc1Cl	2.1	0.65
COc1ccc(NC(=O)C2Cc3ccccc3OC2=NO)cc1 (stereo not given)	-2.3	0.68
O=C(NN=Cc1ccc(Cl)s1)c1ccc(Cn2cccn2)o1	10	0.65
COc1ccc(C=NNC(=O)c2[nH]c3ccc(Cl)cc3c2-c2ccccc2)c(C(=O)O)c1OC	-11	0.67
COc1ccccc1/C=C/C(=O)NCC(=O)NN=Cc1ccc(C)o1	-15	0.6
CC(=NOc1cccc(F)n1)c1ccc(Cl)cc1Cl	-0.2	0.72
O=[N+]([O-])c1ccc(COc2ccccc2C=NO)cc1	2.1	0.62
CCCCCCCCCCS(=O)(=O)NN=Cc1ccccc1OC	2.8	0.7
Cc1cc(Cl)ccc1NC(=O)CCC(=O)NN=Cc1cc([N+](=O)[O-])ccc1O	1.0	0.69
CCN(CC)c1ccc(C=NNC(=O)c2ccc3nc[nH]c3c2)cc1	-19	0.63
O=C(CCc1ccc(O)c(O)c1)NN=Cc1ccc2c(c1)OCO2	0.7	0.72
Cc1ccc(N2CCN(N=Cc3ccccc3[N+](=O)[O-])CC2)cc1	4.2	0.71
COc1cccc(C=NNC(=O)CN2C(=O)NC3NC(=O)NC32)c1 (stereo not given)	4.0	0.64
Cc1ccsc1C=NNc1ccc(C(=O)O)cc1	12	0.67
CC(C)(C)OC(=O)NN=Cc1ccc(OC(=O)c2ccco2)cc1	2.8	0.67
COc1ccccc1/C=C/C=NNC(=O)c1cccs1	1.8	0.66
COc1cc(C=NNC(=O)CN(Cc2ccco2)S(=O)(=O)c2ccccc2)ccc1O	1.5	0.63
O=C(COc1cccc(Cl)c1)NN=Cc1cc2ccccc2nc1Cl	-396	0.71

Reprinted at random: 2 records from the list.
SMILES	UCH37 DUB inh	E coli growth
Cc1ccc(N2CCN(N=Cc3ccccc3[N+](=O)[O-])CC2)cc1	4.2	0.71
CC(C)(C)OC(=O)NN=Cc1ccc(OC(=O)c2ccco2)cc1	2.8	0.67

Looked up above:
O=C(NN=Cc1c(O)ccc2ccccc12)c1cccc(C(F)(F)F)c1 in E coli growth is listed with 0.54
O=C(NN=Cc1ccc(Cl)s1)c1ccc(Cn2cccn2)o1 in UCH37 DUB inh is listed with 10
O=[N+]([O-])c1ccc(COc2ccccc2C=NO)cc1 in E coli growth is listed with 0.62
COc1cccc(C=NNC(=O)CN2C(=O)NC3NC(=O)NC32)c1 (stereo not given) in E coli growth is listed with 0.64
CCCCCCCCCCS(=O)(=O)NN=Cc1ccccc1OC in UCH37 DUB inh is listed with 2.8
CC(=NOc1cccc(F)n1)c1ccc(Cl)cc1Cl in UCH37 DUB inh is listed with -0.2
O=C(Cc1csc(N2CCOCC2)n1)NN=Cc1ccc(Cl)cc1Cl in E coli growth is listed with 0.67

(list continues)
SMILES	UCH37 DUB inh	E coli growth
ON=C(CCc1ccccc1)C1(O)CCCCC1	-0.6	0.64
COc1ccccc1NC(=O)COc1ccc(C=NNC(=O)c2cccnc2)cc1	-3.5	0.72
Oc1c(Br)cc(Br)cc1C=Nc1nccs1	4.3	0.68
CC(=NNC(=O)c1ccccc1[N+](=O)[O-])c1ccc(Br)s1	1.6	0.75
COC(=O)c1cc(C(=O)c2ccc(Cl)cc2)n2c(=O)c(=CN(C)C)sc12	-13	0.67
O=C(CCc1ccccc1O)NN=Cc1ccc(Sc2cccc3cccnc23)o1	-3.9	0.7
ON=Cc1ccnc(SCc2ccccc2)n1	3.1	0.66
O=[N+]([O-])c1cc(C=NO)ccc1SCc1ccccc1	6.3	0.71
Cc1csc(NN=Cc2ccccc2F)n1	2.4	0.74
O=C(CNC(=O)c1cccc(Cl)c1)NN=Cc1cccnc1	3.4	0.62
COCCCNC(=S)NN=Cc1cccc(OC)c1O	-20	0.7
CC(C)c1ccc(C=NNC(=O)CCNC(=O)c2ccccc2)cc1	2.0	0.63
CC(CC1(O)C(=NO)CCc2nonc21)=NO (stereo not given)	4.6	0.73
O=C(NN=Cc1ccc(N2CCOCC2)s1)c1ccccc1Cl	3.1	0.69
O=C(NN=Cc1ccc([N+](=O)[O-])cc1)c1ccccc1OCc1ccccc1	1.5	0.72
COc1ccccc1C=NNC(=O)CN(C1=NS(=O)(=O)c2ccccc21)c1ccccc1	-1.0	0.71
Cc1c(Cl)cccc1NC(=O)CCC(=O)NN=Cc1ccco1	4.6	0.64
CC(C)c1ccc(N(CC(=O)NN=Cc2ccc(OC3CSC3)cc2)S(=O)(=O)c2ccccc2)cc1	1.4	0.72
CON=C(N)c1ccc([N+](=O)[O-])cc1	6.8	0.71
COc1cc(C=NNC(=O)C(N)=O)ccc1OC(=O)c1cccs1	2.5	0.73
CC(C)(C)C(=O)Nc1ccc(C(=O)NN=Cc2ccccc2OC(=O)c2ccc(Cl)cc2)cc1	0.1	0.73
CC(=NO)C1CC(CC(=O)O)C1(C)C (stereo not given)	2.3	0.66
CCOc1ccc(Br)cc1C(=O)NN=Cc1c[nH]c2ccccc12	-105	0.69
Cc1c(C=NN=C2CCC3C4CCc5cc(O)ccc5C4CCC23C)cnn1C (stereo not given)	2.0	0.81
CCOc1ccccc1C=Nn1nnnc1N	-4.0	0.64

One compound at a time (already shown).
CC(=NO)C1CC(CC(=O)O)C1(C)C (stereo not given) as listed: UCH37 DUB inh: 2.3; E coli growth: 0.66
O=C(CCc1ccccc1O)NN=Cc1ccc(Sc2cccc3cccnc23)o1 as listed: UCH37 DUB inh: -3.9; E coli growth: 0.7
Cc1c(Cl)cccc1NC(=O)CCC(=O)NN=Cc1ccco1 as listed: UCH37 DUB inh: 4.6; E coli growth: 0.64

Following part
SMILES	UCH37 DUB inh	E coli growth
O=C1CCCC(=NNc2ccc(Cl)cc2)C1	6.0	0.7
CC(=NNC(=O)CSc1nc2ccccc2s1)c1ccco1	-1.5	0.7
COC(=O)c1cc(C(=O)c2ccccc2)n2c(=O)c(=CN(C)C)sc12	-1.2	0.73
C(=Nc1nc2ccccc2[nH]1)c1cccs1	5.9	0.66
COC(=O)c1ccc(C=NNc2nc3ccccc3[nH]2)cc1	5.3	0.7
COc1ccc(C=NNS(=O)(=O)c2ccc(C)cc2)cc1	3.0	0.65
CC(=NNc1ccccc1C)c1cccnc1	5.4	0.69
CC1=CC(=O)C(C(C)C)=CC1=NOC(=O)c1cccc2nc(C)oc12	3.0	0.71
CC(NC(=O)COc1ccc(C=NNC(=O)CO)cc1)c1ccccc1 (stereo not given)	-1.8	0.73
Cc1ccc(S(=O)(=O)NN=Cc2cc(Br)c(C)o2)cc1	5.4	0.75
Fc1ccccc1-c1ccc(C=NNc2nc3ccccc3[nH]2)o1	-40	0.61
ON=C(C[n+]1ccccc1)c1ccc(Br)cc1	0.6	0.61
CC(=NNC(=O)c1ccc2nc[nH]c2c1)c1cccs1	8.7	0.71
Cn1cc(C=NO)nc2c(=O)n(-c3ccccc3)c(=O)nc1-2	-29	0.68
Cc1ccc2nc(Cl)c(C=NNc3ccc(C(=O)O)cc3)cc2c1	6.3	0.71
CCOc1ccc(C=NN2C(C)CCCC2C)cc1OC (stereo not given)	-0.6	0.63
CN(C)C=Nc1nc2ccc3c(c2s1)CCCC3	-1.0	0.66
CC(=NNc1ncc(Cl)cc1Cl)c1ccc2c(c1)OCO2	0.7	0.74
Cc1nc2ccccc2c(=O)n1N=Cc1ccccc1O	-3.1	0.72
O=C(NN=C/C=C/c1ccccc1)NC1CCCCC1	2.4	0.64
CC(=NNc1ncc(Cl)cc1Cl)c1ccccn1	9.6	0.6
FC(F)(F)c1cc(C(F)(F)F)c2ccc(NN=Cc3ccccc3)nc2n1	6.8	0.8
S=c1[nH]nc(COc2ccccc2)n1N=Cc1cccs1	2.0	0.64
Cc1cc(=O)oc2c3c(ccc12)OCC3=NN	-23	0.69
COc1ccc(C=N/N=C2/NC(=O)CC(C(=O)O)S2)cc1 (stereo not given)	11	0.7

Continued:
SMILES	UCH37 DUB inh	E coli growth
O=C(CN(Cc1ccccc1)S(=O)(=O)c1ccc2c(c1)OCCO2)NN=Cc1cccc(Br)c1	0.6	0.69
NC(=NOS(=O)(=O)c1ccc([N+](=O)[O-])cc1)c1ccncc1	2.7	0.72
Cc1ccc(C=NNC(=O)c2cccc3ccccc23)o1	-40	0.71
CC(=NNC(=O)c1c(Br)cnn1C)c1ccc(NC(=O)c2ccc(F)cc2)cc1	3.1	0.68
C=CCOc1c(Br)cc(C=Nn2c(CC)n[nH]c2=S)cc1Br	2.0	0.69
CCOC(=O)NN=Cc1ccccc1OCc1ccc(Cl)cc1	6.4	0.69
C=CCc1ccc(OCCOc2ccc(C=Nn3cnnc3)cc2OCC)c(OC)c1	0.8	0.78
CCC(=NNC(=O)Nc1nonc1N)c1ccc(OC)c(OC)c1	2.2	0.64
COc1cccc(C=NNC(=O)C(=O)NN=Cc2cccc(OC)c2O)c1O	5.6	0.71
CC(=NNC(=O)CN1CCN(Cc2ccccc2Cl)CC1)c1ccncc1	-1.6	0.68
Cc1ccc(-n2c(C)cc(C=NNC(=O)CC(=O)NC(C)C)c2C)cc1	3.0	0.72
O=C(O)COc1ccc(C=NNC(=O)C(O)(c2ccccc2)c2ccccc2)cc1	2.3	0.7
CCC(CC)NC(=O)CON=Cc1ccccc1OC(F)F	2.0	0.63
COc1nc(NN=Cc2cc3c(cc2Br)OCO3)nc(N2CCOCC2)n1	3.8	0.71
CC1CCCCC1NC(=O)CON=Cc1ccccc1OC(F)F (stereo not given)	2.9	0.71
Cc1ccc(OCC(=O)NN=Cc2ccc(C)o2)c(C)c1	3.2	0.64
CC(=O)Nc1ccc(S(=O)(=O)Oc2cccc(C=N/N=C3/NC(=O)C(CC(=O)O)S3)c2)cc1 (stereo not given)	9.1	0.68
CN(C)N=Cc1cc(Cl)cc([N+](=O)[O-])c1O	8.1	0.7
CN(C)CCNC(=O)C(=NO)c1ccccn1	0.5	0.71
O=C(CNC(=O)c1ccc(S(=O)(=O)N2CCCC2)cc1)NN=Cc1ccccc1Cl	3.8	0.68
COc1cccc(C=Nn2c(COc3ccccc3)n[nH]c2=S)c1OC	2.6	0.68
Oc1cccc(C=NN2CCN(C3c4ccccc4-c4ccccc43)CC2)c1	-0.4	0.69
CCOC(=O)c1cc(CC)sc1N=CC1=C(O)CC(C)(C)CC1=O	-118	0.68
Cn1cccc1C=NNC(=O)c1cccc(OC(F)(F)C(F)F)c1	4.7	0.66
CCOC(=O)Cn1cc(C=NNC(=O)CC#N)c2ccccc21	2.1	0.72

Further entries follow:
SMILES	UCH37 DUB inh	E coli growth
Cc1nc2ccccc2c(=O)n1N=Cc1ccccc1F	2.2	0.67
CC(=NNC(=O)C(O)c1ccccc1)c1cccnc1 (stereo not given)	6.7	0.71
CCCn1ncc(C=NO)c1C	-0.5	0.64
COCCn1cnc2c(c1=O)c1nc3ccccc3nc1n2N=Cc1cccc(OC)c1	1.7	0.67
Cc1ccccc1C=NNC(=O)c1csnn1	1.1	0.72
O=C(NN=Cc1ccccn1)c1cc(-c2ccc(Br)s2)[nH]n1	2.6	0.68
O=C(CNC(=O)c1ccccc1Br)NN=Cc1ccc(O)cc1	-2.0	0.67
O=C(NC(C(=O)NN=Cc1cccnc1)c1n[nH]c(=O)c2ccccc12)c1ccccc1 (stereo not given)	3.7	0.68
Cc1ccsc1C=NNC(=O)Cc1ccc([N+](=O)[O-])cc1	7.0	0.71
CC(=NNC(=O)c1nnn(-c2nonc2N)c1C)c1ccc(OCc2ccccc2)cc1	-1.2	0.73
CC1(CC(=O)NN=Cc2ccc(-c3ccc(C(=O)O)cc3)o2)OCCO1	-42	0.71
CCN(CC)c1ccc(C(=O)c2cnc(N=CN(C)C)s2)cc1	11	0.71
COc1ccc(C=NNC(=O)C(C)Sc2ccccn2)cc1[N+](=O)[O-] (stereo not given)	4.8	0.59
CCc1c(C(=O)NN=Cc2cn[nH]c2-c2ccc(F)cc2)csc1C	6.3	0.68
CC(/C=C/c1ccccc1)=NNC(=O)C(O)c1ccccc1 (stereo not given)	0.2	0.7
COc1ccc2c(c1)CCCC2=NNc1nc(C(=O)NN)cs1	-15	0.66
CC(=NNC(=O)CNC(=O)c1ccccn1)c1cccc([N+](=O)[O-])c1	2.2	0.65
O=C(CCC(=O)Nc1ccccc1)NN=C/C=C/c1ccccc1	5.4	0.7
Cc1ccc(C=NNC(=O)CCCOc2ccc(Cl)cc2Cl)cc1[N+](=O)[O-]	0.5	0.69
CC(C)CC(NC(=O)c1ccccc1)C(=O)NN=Cc1ccco1 (stereo not given)	-1.5	0.71
CC(C)(C)C(O)=C(C#N)c1nc2ccccc2[nH]1	2.5	0.69
COc1ccc(C=NNC(=O)c2ccc(NC(=O)c3ccccc3Br)cc2)cc1	2.9	0.71
